TRPV1 potentiator: potentiators of human vanilloid receptor 1 (TRPV1); Q8NER1; TRPV1-expressing cells, Fluo-8 calcium influx, capsaicin EC20 potentiation; host cell line not named in the record; control for the full effect not named in the record; potentiation, % at 8.33 µM; 320,000 tested, 0.02% active; active means potentiation above 80%; inconclusive means 30% to 80%; inactive means below 30%; also: 0% is about no effect
Target sequence (Q8NER1 whole entry, looked up): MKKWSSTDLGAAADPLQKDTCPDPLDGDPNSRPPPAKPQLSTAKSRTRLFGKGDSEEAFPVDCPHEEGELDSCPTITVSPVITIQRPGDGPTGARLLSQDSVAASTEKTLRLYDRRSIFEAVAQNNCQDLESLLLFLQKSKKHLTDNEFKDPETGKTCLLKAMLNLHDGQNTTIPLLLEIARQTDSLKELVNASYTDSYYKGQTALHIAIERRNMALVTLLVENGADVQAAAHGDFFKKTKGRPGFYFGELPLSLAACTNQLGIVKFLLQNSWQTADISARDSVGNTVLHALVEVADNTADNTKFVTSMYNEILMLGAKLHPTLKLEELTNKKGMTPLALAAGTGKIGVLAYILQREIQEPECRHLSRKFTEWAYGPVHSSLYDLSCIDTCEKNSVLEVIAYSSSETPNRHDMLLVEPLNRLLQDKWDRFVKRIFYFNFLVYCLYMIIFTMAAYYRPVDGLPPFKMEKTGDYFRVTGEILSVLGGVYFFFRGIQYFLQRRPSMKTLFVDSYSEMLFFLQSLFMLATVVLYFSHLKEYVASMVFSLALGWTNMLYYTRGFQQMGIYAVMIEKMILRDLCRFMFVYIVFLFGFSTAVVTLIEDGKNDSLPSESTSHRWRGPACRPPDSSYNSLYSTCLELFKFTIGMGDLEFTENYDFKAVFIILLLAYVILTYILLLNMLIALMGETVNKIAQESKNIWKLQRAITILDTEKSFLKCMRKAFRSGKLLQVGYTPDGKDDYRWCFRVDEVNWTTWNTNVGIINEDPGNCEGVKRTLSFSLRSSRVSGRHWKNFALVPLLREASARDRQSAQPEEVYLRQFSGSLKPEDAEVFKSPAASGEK
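Cells expressing TRPV1 were dye-loaded with Fluo-8 and read kinetically: 10 s baseline, 3 min after compound (agonist portion), then 2 min after EC20 capsaicin (allosteric enhancer portion). Calcium-bound dye fluorescence at 480/520 nm.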
Sfp PPTase inh: blocks B. subtilis Sfp PPTase activity | Q9F4F7 | Biochemical Sfp PPTase activity, qHTS | Potency, µM, without a hit: max response, negative = inhibition, most hits filed as inhibitors | 310,000 tested, 3.5% active; active = well fitted inhibition curve with a large enough effect; inconclusive = small, poorly fitted or top-dose-only effect, or another doubt; inactive = no such curve, though single readings can be large or run the other way;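 also: the enzyme is Sfp with the accession as filed and its product quenches rhodamine fluorescence; potency is read from the fitted curve at half-maximal effect; 0% = enzyme reaction without inhibitor and -100% = no enzyme wells; top concentration of the series not given in the record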
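Step 1, compound plus 15 nM Sfp-PPTase, 15 min, room temperature. Step 2, add rhodamine-CoA (5 uM) and BHQ-2-YbbR (12.5 uM). Step 3, read 525/598 nm fluorescence at 0 and 30 min.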
gsp ag: gsp mutant agonism. gsp mutant cells, cAMP HTRF, 30 min; control for the full effect not named in the record. Potency, µM (highest dose often 76.9 µM), for the others: at the top dose activation (cAMP increase), actives largely listed as activators. 340,000 tested, 0.13% active; active = well fitted activation curve with a large enough effect; inconclusive = small, poorly fitted or top-dose-only effect, or another doubt; inactive = no such curve, though single readings can be large or run the other way; cell line not stated here;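 also: phosphodiesterase inhibitor Ro 20-1724 added with compounds to block cAMP breakdown; potency is read from the fitted curve at half-maximal effect; nearly all actives have a fitted effect of over 60% in size; about a fifth of the inactives were tested at one dose only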
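Cells in DMEM/10% FBS with G418 were pretreated with compounds in DMSO plus […] (300 uM stock) for 30 min at 37C. cAMP was measured by HTRF (cAMP-d2 plus anti-cAMP antibody-K) after 30 min at room temperature.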
CtBP-E1A blk: CtBP/E1A binding inhibition | AID 651724 | activity change, % (concentration not given with the values) | 340,000 tested, 0.49% active | AlphaScreen GST-E1A/His-CtBP binding, 1536-well; hits give low values; control for the full effect not named in the record; in the data active means activity change below about -65%; inconclusive means about -30% to -65%; inactive means above about -30%; also: % is scaled to controls: 0 for no effect and ±100 for the full control effect
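Protein mix (5X: 125 nM each GST-E1A, His-CtBP) was incubated with pinned compound 2 h at 37 deg C in dark, in 50 mM Tris pH 8.0 buffer with 300 mM NaCl. Glutathione donor and nickel acceptor beads followed; AlphaScreen signal read after 1 h.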
Menin-MLL FL inh: inhibitors of human menin-MLL interaction, wild-type MLL peptide | Fluorescence polarization, fluorescein-MLL peptide displacement from menin | AID 1766 | FP activity change, % at 61.4 µM | 290,000 tested, under 10 active; inconclusive = falling polarisation curve, or a change in total fluorescence; inactive = total fluorescence flat and polarisation flat or rising; no compound was filed as active; the % refers to the polarisation; negative = inhibition;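 also: % of control where 0% means no effect; inhibitors lower the polarisation; unlabelled MLL peptide was the positive control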
ClpP mod: qHTS Assay for Activators of ClpP; purified B. subtilis ClpP, FRET peptide cleavage, 20 min; 340,000 tested, 1.9% active; AID 651965, 2013; Potency, µM (doses to about 57.5 µM), for the others: top-dose activity change, negative = active; active = well fitted falling curve with a large enough effect; inconclusive = small, poorly fitted or top-dose-only effect; inactive = no such curve, though single readings can be large or run the other way; also: potency is read from the fitted curve at half-maximal effect; the source files actives as falling curves though it sought activators and does not explain the sign; nearly all actives have a fitted effect of over 65% in size; many hits overshoot -100%
Target sequence (P80244 whole entry, looked up): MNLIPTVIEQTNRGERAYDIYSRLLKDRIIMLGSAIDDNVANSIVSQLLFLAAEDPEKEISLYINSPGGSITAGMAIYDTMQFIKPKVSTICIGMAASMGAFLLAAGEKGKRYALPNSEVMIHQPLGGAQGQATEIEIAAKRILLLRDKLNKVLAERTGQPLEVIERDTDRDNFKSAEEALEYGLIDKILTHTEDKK
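Buffer: 100 mM Tris/HCl pH8, 100 mM KCl, 0.05% low protease BSA, 2.5% glycerol, 0.01% Tween-20. ClpP 10 microg/mL final; 20 min RT; delta FRET normalized to ADEP and DMSO controls.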
gsp antagonist: antagonists of gsp mutant (McCune-Albright syndrome). gsp-mutant cells, cAMP HTRF, 30 min; control for the full effect not named in the record. Potency, µM (doses to about 76.9 µM), for the others: at the highest dose activity change, negative = inhibition, actives largely listed as inhibitors. 340,000 tested, 0.4% active. AID 624288; active = falling curve of any shape with a large fitted effect; inconclusive = falling curve, mostly with a smaller effect; inactive = flat or rising curve; cell line not stated here;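 also: intracellular cAMP measured with PDE inhibitor Ro 20-1724 present during compound exposure; potency is read from the fitted curve at half-maximal effect; % is scaled to controls: 0 for no effect and ±100 for the full control effect; nearly all actives have a fitted effect of over 65% in size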
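Measurement of cellular cAMP by homogeneous time-resolved fluorescence following a 30 min compound exposure at 37C. The PDE inhibitor […] was present throughout; the assay buffer was DPBS with 0.05% BSA and 0.005% Tween 20.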
An asterisk follows results filed as active; ? = inconclusive; . = no result given; & = joins results of further samples; [ ] = remark or other dose.

SMILES	TRPV1 potentiator	Sfp PPTase inh	gsp ag	CtBP-E1A blk	Menin-MLL FL inh	ClpP mod	gsp antagonist
Clc1ccc(-c2nnc(-c3ccccc3)c(N3CCSCC3)n2)cc1	-6.3	-2.4%	-25.9%	-12.7	0.4	1.6%	-41.2%
COc1ccc(C)cc1NC(=O)c1cc(S(=O)(=O)N2CCC3(CC2)OCCO3)ccc1F	-11.0	-0.3%	?	?	.	-0.6%	-3.7%
CCOC(=O)c1[nH]cnc1C(=O)NC(C)C	14.9	2.0%	?	4.2	-0.6	-1.2%	10.3%
CC(C)CCNC(=O)C(=O)NCC1OCCCN1S(=O)(=O)c1cccs1 (configuration not stated)	26.9	6.7%	13.2%	-2.4	.	-1.9%	3.8%
COc1ccccc1NC(=O)COC(=O)C1CC2CCCC(C1)C2=O (configuration not stated)	.	.	26.1%	-0.3	.	.	6.5%
Cc1onc(-c2c(Cl)cccc2Cl)c1C(=O)c1ccc(F)cc1	6.9	-6.3%	17.1%	.	4.5	0.1%	-22.7%
O=C(c1ccc(Cl)cc1)N1CCCC(C(=O)N2CCc3ccccc3C2)C1 (configuration not stated)	-17.9	8.0%	-31.0%[15.4 µM]	-11.5	-2.3	0.9%	-2.4%
CCCCCc1nnc(NC(=O)Cn2cnc3ccccc3c2=O)s1	?	9.5%	-5.4%	7.2	-0.4	0.4%	0.0%
O=C(NC(=S)Nc1ccc(Br)cc1)C1CCC1	-6.9	5.5%	-0.4%	0.0	.	-2.9%	-6.6%
O=C(CSc1nnc(-c2cccnc2)n1-c1ccccc1)NCc1ccc2c(c1)OCO2	8.8	8.4%	-18.7%	4.2	2.3	-1.1%	3.9%
CCc1cc(N2CCOCC2)cc2c1[nH]c1ccccc12	-6.1	50.1µM*	0.1%	-0.2	-1.8	10µM*	-9.0%
CS(=O)(=O)N1CCN(c2ccccc2NC(=O)C(c2ccccc2)c2ccccc2)CC1	8.1	-3.9%	10.0%	-1.6	2.6	-0.6%	-18.2%
COc1ccc(C(=O)NCCNc2nc3ccc(C)cc3cc2C#N)cc1OC	7.5	10.7%	-5.6%	-1.5	1.6	4.5%	0.6%
O=C(NCC(F)(F)F)c1ccc(S(=O)(=O)Nc2ccccc2N2CCCC2)cc1	.	.	0.1%	-4.9	.	.	8.6%
CCc1cc2c(=O)c(-c3nc4ccccc4n3C)c(COCC(=O)O)oc2cc1OC(=O)C(C)(C)C	5.9	-0.7%	0.8%	10.1	0.2	-1.6%	-15.4%
CCN(C(=O)CSc1nc2scc(-c3ccccc3)c2c(=O)n1C)C1CCS(=O)(=O)C1 (configuration not stated)	.	.	-56.8%[inhibitor]	9.0	.	-3.1%	-11.9%
Cc1cc(-c2ccccc2)n2ncc(-c3ccccc3)c2n1	-1.2	-11.4%	-8.4%	2.2	1.7	1.2%	-29.9%
Cc1cccc(Cn2c(NCC(C)O)nc3c2c(=O)n(C)c(=O)n3C)c1 (configuration not stated)	6.7	22.7%	-0.3%	0.0	-0.7	-6.7%	-9.7%
O=C(C[C@H]1C(=O)N(c2ccccc2)C[C@@H]1Cc1ccccc1)Nc1ccc(Br)cc1	.	.	?	0.0	.	-6.2%	.
CCN(C(=O)c1cn(C)c(=O)c2ccccc12)c1ccccc1F	5.2	8.3%	6.2%[15.4 µM]	2.9	-4.6	-1.5%	4.2%
Cc1ccc(N(C)S(=O)(=O)c2ccc(C)cc2)cc1	1.8	12.2%	-32.9%[inhibitor]	30.7	2.6	-1.3%	-7.5%
O=C(NCCc1ccccc1)C(=O)c1c[nH]c2ccccc12	10.0	19.4%	13.8%	4.5	-0.4	.	-19.2%
COc1ccc(N(CCCN2C(=O)c3cccc4cccc(c34)C2=O)C(=O)c2cccs2)cc1	7.4	9.3%	1.0%	-27.6	0.9	?	2.2%
CC(Sc1nnnn1-c1ccccc1)C(=O)NC1CCCC1 (configuration not stated)	8.3	.	-2.6%	9.4	.	0.8%	7.0%
O=C(Nc1c(C(=O)N2CCCCC2)cnn1-c1ccccc1)c1ccco1	21.0	10.5%	6.3%	11.4	-1.1	-0.6%	3.1%
COc1cccc(C(=O)OCC(=O)c2ccc(S(=O)(=O)N3CCCCC3)cc2)c1OC	4.9	.	-0.7%	5.7	.	-0.4%	-0.6%
O=S(=O)(NCc1cccnc1)c1ccc(Cl)nc1	2.2	17.5%	?	4.0	-0.5	?	-6.9%
COc1cc(Nc2ncnc(N)n2)cc(OC)c1OC	4.8	10.0%	4.1%	-0.5	3.9	.	-5.6%
CCN(CC(=O)Nc1ccc(NC(C)=O)cc1)C(=O)c1ccc(COc2ccc(C(C)(C)C)cc2)cc1	.	.	?	-6.1	.	-1.6%	-24.1%
O=C(NC1CCCCC1)c1cc(-n2cnnc2)ccc1Cl	-2.2	9.1%	-0.1%	4.2	.	0.0%	10.6%
Cc1cc(C)nc(SCC(=O)Nc2ccc(S(=O)(=O)NC(C)(C)C)cc2)n1	6.3	0.8%	13.8%	-6.7	3.0	-0.8%	?
COc1ccccc1C1SCCN1S(=O)(=O)c1cccc(C(F)(F)F)c1 (configuration not stated)	0.8	0.1%	-36.8%[inhibitor]	10.0	0.9	-7.9%	-6.3%
O=C(Cc1ccc(NS(=O)(=O)c2ccc(Cl)c(Cl)c2)cc1)NCCN1CCOCC1	1.2	.	-5.6%	0.4	.	0.5%	-5.6%
CCC1Oc2ccc(C)cc2N(CC(=O)NCCCN2CCN(Cc3ccccc3)CC2)C1=O (configuration not stated)	-2.7	11.5%	7.1%	-10.6	-1.9	-2.5%	5.8%
CC12CCC(C(=O)N(NC(=O)c3ccccc3Cl)C1=O)C2(C)C (configuration not stated)	-15.8	2.6%	23.5%	1.0	5.8	.	3.0%
Cc1cc(Cl)ccc1NC(=S)NCc1ccc(Cl)cc1	-11.9	3.9%	4.5%	-0.8	0.1	-1.0%	?
O=C(CC(c1ccccc1)c1ccccc1)Nc1ccc(C(=O)O)cc1	3.6	13.2%	-41.9%[inhibitor]	6.2	-0.7	0.1%	-15.1%
CC(=O)c1sc2c(c1N)c(=O)[nH]c(=O)n2-c1ccccc1	18.7	7.2%	16.9%[15.4 µM]	-6.7	-25.9	-3.2%	-5.0%
Cc1nnc(NC(=O)c2ccc(F)c(S(=O)(=O)N3CCCCC3)c2)s1	-3.3	1.3%	-1.0%[15.4 µM]	0.0	-4.8	-20.3%	10.1%
C/C(=N\Nc1cc(Cl)nc(C)n1)c1ccc(Cl)c(Cl)c1	1.0	9.0%	-54.4%[inhibitor]	-20.3	-1.4	-0.6%	-2.0%
COC(=O)CCC(=O)NNC(=O)CCC(=O)Nc1cccc(Cl)c1C	2.1	11.4%	6.5%[15.4 µM]	6.3	0.6	.	6.4%
CCN1CCN(C(=S)Nc2ccc(Cl)cc2Cl)CC1	-5.4	-24.9%	7.4%	-2.6	4.0	0.6%	11.2%
O=C(CSc1nnc(-c2ccco2)n1-c1ccccc1Cl)Nc1cccc(C(=O)O)c1	14.6	?	3.8%	2.9	-2.1	-0.9%	1.5%
CCOc1ccccc1NC(=O)c1nc(S(=O)(=O)Cc2cccc(C)c2)ncc1Cl	8.3	-2.7%	?	2.0	.	-0.9%&-2.7%	-24.4%
O=C(COc1ccccc1)Nc1nc2c(s1)CCCC2	17.4	4.2%	16.8%	-5.6	-5.5	.	3.8%
C[C@H](CO)N1C[C@H](C)[C@@H](CN(C)C(=O)Nc2ccc(F)cc2)OCc2cnnn2CCCC1=O	.	.	-87.9%[inhibitor]	9.7	.	1.4%	.
O=C(CCNC(=O)c1ccc(Br)o1)NCc1ccc(Cl)cc1	-2.8	10.2%	18.0%	4.1	1.3	0.9%	9.1%
NC(=O)NC1(C(=O)O)CCCC1	.	.	8.2%	3.4	.	.	15.8%
O=C(NNC(=O)C1[C@H]2CCCC[C@@H]12)c1ccc(=O)oc1 (some centres not stated)	-2.0	-7.9%	-40.2%[inhibitor]	30.7	?	.	-0.1%
CCN(CC)CCn1c(NCc2cccc(OC)c2)nc2ccccc21	-10.8	-6.9%	0.0%	-1.6	0.9	-2.8%	11.4%
CO[C@H]1/C=C/O[C@@]2(C)Oc3c(C)c(O)c4c(O)c(c5c(c4c3C2=O)NC2(CCN(CC(C)C)CC2)N=5)=NC(=O)/C(C)=C\C=C\[C@H](C)[C@H](O)[C@@H](C)[C@@H](O)[C@@H](C)[C@H](OC(C)=O)[C@@H]1C	.	6.7%	.	-24.5	4.7	-1.0%	-18.6%
COc1ccc(NS(=O)(=O)c2ccc(N3CCOCC3)c(NC(=O)c3ccc(OC)cc3)c2)cc1	8.3	22.3%	-13.0%	-5.1	4.6	-25.1%	-22.4%
O=C(COc1ccc(Br)cc1)N1CCC(c2ccccc2)C1 (configuration not stated)	-3.9	-4.2%	9.1%	-0.7	-0.1	-1.4%	-0.6%
O=C(NN=C1CCCC1)c1cc(O)cc(O)c1	1.9	-18.8%	-22.4%	-18.9	.	1.0%	-8.2%
Cc1nc(NC2=NCN(CCc3ccccc3)CN2)nc2ccccc12	3.7	?	.	.	8.4	.	.
Cc1c(C)n(C)c2ccc(C(=O)N3CCN(c4ccccn4)CC3)cc12	-6.9	-7.4%	9.6%	.	2.7	-12.5%	-1.8%
CC12CCC(=O)N1C(C(=O)Nc1ccc(F)cc1)CS2 (configuration not stated)	-2.2	2.4%	25.8%	3.9	0.6	0.0%	6.2%
CC(C)[N+]1=C2C=CC=CC=C2SC12C([N+](=O)[O-])=CC(=[N+]([O-])[O-])C=C2[N+](=O)[O-] (configuration not stated)	-22.8	-21.9%	1.1%	.	3.1	0.1%	0.3%
CCN1CSC(=S)N(Cc2ccc(OC)cc2)C1	-4.4	?	-0.6%	-2.4	2.3	-0.4%	5.0%
COC(=O)c1c(C(=O)OC)c2n(c1C)Cc1ccccc1C2	-5.9	11.0%	23.9%	0.0	-1.4	0.0%	16.2%

Screens deposited in PubChem by National Center for Advancing Translational Sciences (NCATS).
